D2 PAM = positive allosteric modulators of human D2 dopamine receptor; P14416; hit rate 0.23% among 360,000; potentiation, % (no concentration beside the values); DiscoveRx D2 beta-arrestin cells, luminescence, 90 min; 100% = 57 uM dopamine signal; active = potentiation of 50% or more; inconclusive = 30% to 50%; inactive = 30% or less;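 also: compound concentration not given in the record; tested on top of an EC20 dose of dopamine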
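PathHunter beta-arrestin assay in DiscoveRx D2 cells. Compounds were added with an EC20 of dopamine (50 nM final) for 90 min at 37 deg C. Luminescence was read 1 h after detection reagent, with 57 uM dopamine as the EC100 control.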
CtBP-E1A blk = CtBP/E1A binding inhibition | hit rate 0.49% among 340,000 | AlphaScreen GST-E1A/His-CtBP binding, 1536-well; active compounds read low; control for the full effect not named in the record | activity change, % (concentration not given with the values); in the data active means activity change below about -65%; inconclusive means about -30% to -65%; inactive means above about -30%; also: % is scaled to controls: 0 for no effect and ±100 for the full control effect
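Homogeneous bead-based format: GST-tagged E1A captured on glutathione donor beads, His-tagged CtBP on nickel acceptor beads; compounds precede bead addition by 2 h at 37 °C.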
gsp antag = antagonizes gsp, the McCune-Albright syndrome mutation; Potency, µM (highest dose often 76.9 µM), inactives show at the top dose activity change, negative = inhibition, most hits filed as inhibitors; hit rate 0.4% among 340,000; AID 624288; gsp-mutant cells, cAMP HTRF, 30 min; control for the full effect not named in the record; active = falling curve of any shape with a large fitted effect; inconclusive = falling curve, mostly with a smaller effect; inactive = flat or rising curve; cell line not stated here;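 also: intracellular cAMP measured with PDE inhibitor Ro 20-1724 present during compound exposure; potency is read from the fitted curve at half-maximal effect; % is scaled to controls: 0 for no effect and ±100 for the full control effect; nearly all actives have a fitted effect of over 65% in size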
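Cells, 2000/well, grown 16–24 h in DMEM 10% FBS with 0.5 mg/ml G418, then compounds plus […] (300 uM addition stock), 30 min at 37C. cAMP read by HTRF (cAMP-d2 and anti-cAMP antibody-K in lysis buffer) after 30 min RT.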
Six1-Eya2 inh = Six1/Eya2 interaction inhibition | Q15475+O00167 | AlphaScreen GST-Six1/His-Eya2 binding, biochemical; active compounds read low; control for the full effect not named in the record | activity change, % (test concentration not listed) | hit rate 0.56% among 360,000 | AID 651725; in the data active = activity change below about -65%; inconclusive = about -30% to -65%; inactive = above about -30%; also: % is scaled to controls: 0 for no effect and ±100 for the full control effect
Target sequence (O00167 whole entry, looked up): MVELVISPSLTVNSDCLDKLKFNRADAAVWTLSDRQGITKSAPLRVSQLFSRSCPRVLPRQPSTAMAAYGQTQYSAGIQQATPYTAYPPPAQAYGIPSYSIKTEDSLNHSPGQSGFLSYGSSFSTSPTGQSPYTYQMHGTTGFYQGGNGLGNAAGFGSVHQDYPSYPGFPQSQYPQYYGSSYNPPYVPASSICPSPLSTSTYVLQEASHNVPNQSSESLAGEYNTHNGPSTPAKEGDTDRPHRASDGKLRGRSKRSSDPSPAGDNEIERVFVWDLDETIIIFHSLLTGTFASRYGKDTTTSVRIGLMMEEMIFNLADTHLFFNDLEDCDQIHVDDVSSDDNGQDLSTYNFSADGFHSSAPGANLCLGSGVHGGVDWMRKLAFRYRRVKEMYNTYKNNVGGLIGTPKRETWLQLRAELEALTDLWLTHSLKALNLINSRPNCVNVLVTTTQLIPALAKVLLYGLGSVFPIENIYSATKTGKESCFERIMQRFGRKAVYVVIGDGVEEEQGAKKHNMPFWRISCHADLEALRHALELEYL
Target sequence (Q15475 whole entry, looked up): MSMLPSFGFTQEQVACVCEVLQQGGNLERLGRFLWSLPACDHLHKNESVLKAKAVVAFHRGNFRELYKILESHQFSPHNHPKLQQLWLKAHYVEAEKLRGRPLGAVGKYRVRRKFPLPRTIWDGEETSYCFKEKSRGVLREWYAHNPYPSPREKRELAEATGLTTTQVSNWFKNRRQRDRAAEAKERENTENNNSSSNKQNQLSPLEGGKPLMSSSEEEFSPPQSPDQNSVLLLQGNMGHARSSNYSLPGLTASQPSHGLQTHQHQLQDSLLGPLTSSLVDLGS
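Six1/Eya2 binding was read as AlphaScreen signal after compounds were pinned into GST-Six1 plus His-tagged Eya2 (5X stock 250/500 nM) in pH 8.0 Tris/NaCl/TCEP buffer, beads added, then incubated 1 h, 37 C, dark.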
gsp agonist = activates gsp, the McCune-Albright syndrome mutation. gsp mutant cells, cAMP HTRF, 30 min; control for the full effect not named in the record. Potency, µM (titrated, usually from 76.9 µM), inactives show top-dose activation (cAMP increase), usual class: activators. hit rate 0.13% among 340,000; active = well fitted activation curve with a large enough effect; inconclusive = small, poorly fitted or top-dose-only effect, or another doubt; inactive = no such curve, though single readings can be large or run the other way; cell line not stated here;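 also: phosphodiesterase inhibitor Ro 20-1724 added with compounds to block cAMP breakdown; potency is read from the fitted curve at half-maximal effect; nearly all actives have a fitted effect of over 60% in size; about a fifth of the inactives were tested at one dose only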
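Cells in DMEM/10% FBS with G418 were pretreated with compounds in DMSO plus […] (300 uM stock) for 30 min at 37C. cAMP was measured by HTRF (cAMP-d2 plus anti-cAMP antibody-K) after 30 min at room temperature.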
D2 agonist = agonists of human D2 dopamine receptor (beta-arrestin); DiscoveRx PathHunter D2 beta-arrestin, luminescence, 90 min; 100% = 57 uM dopamine signal; activation, % (test concentration not listed); hit rate 0.084% among 360,000; in the data active = activation above about 40%; inconclusive = about 15% to 40%; inactive = below about 15%; also: compound concentration not given in the record; the text of the record calls up to 30% inactive
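DiscoveRx PathHunter D2 beta-arrestin cells (2,100/well) attached overnight, then compound-stimulated 90 min at 37 C in HBSS/10 mM HEPES/0.1% Tween-20 buffer; beta-galactosidase complementation read by luminescence after 1 h at ambient temperature. Dopamine 57 uM final (EC100) as control.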
Active calls of the source: *; u = inconclusive; x = not tested or not shown; [ ] = another dose, or the depositor's remark.

SMILES | D2 PAM | CtBP-E1A blk | gsp antag | Six1-Eya2 inh | gsp agonist | D2 agonist
CC1CCc2sc(C(=O)NNC(=S)NCC3CCCO3)cc2C1 (configuration not stated) | -10 | 5 | 3% | 2 | -4% | -6.2
CSc1ccccc1OCc1cc(C(=O)NC(C)Cc2cccc(C)n2)no1 (configuration not stated) | -23 | -10 | -26% | -2 | -9% | -3.2
O=C(COC(=O)c1ccc(Cl)nc1)NC(=O)c1ccccc1 | 2 | -4 | 5% | 6 | -21% | 1.4
COc1ccc(CCn2c(=N)c(S(=O)(=O)c3ccccc3)cc3c(=O)n4ccccc4nc32)cc1 | -7 | x | -14% | 6 | -20% | -4.1
CC(=O)N=C1SC2CS(=O)(=O)CC2N1c1ccccc1Cl (configuration not stated) | -18 | -7 | 4% | 0 | -28% | 2.1
CCOc1ccc(CCNC(=O)c2cnc(C)cn2)cc1OCC | 2 | 5 | 1% | 5 | -11% | 1.5
COc1ccc(-c2nnc3ccc(SCC(=O)NCc4ccco4)nn23)cc1OC | -14 | u | 12% | u | -5% | -2.0
CN(C)C=NC(=O)c1cc(C(=O)c2ccccc2)c[nH]1 | -1 | 6 | 3% | -6 | -12%[15.4 µM] | -1.6
CC(C)C(=O)Nc1cccc(NC(=S)NC(=O)c2ccc3c(c2)OCO3)c1 | -27 | 0 | -17% | 3 | -2%[15.4 µM] | -2.2
Cc1snc2sc(C(=O)c3ccc(F)cc3)c(N)c12 | -8 | 3 | 7% | 2 | -1%[15.4 µM] | -0.6
COc1ccc(CNC(=O)C2CC(c3ccccc3C(F)(F)F)=NO2)cc1 (configuration not stated) | 0 | -1 | 7% | 1 | x | 3.4
O=C(CC1C(=O)NCCN1CC1CCCCC1)NCCCN1CCOCC1 (configuration not stated) | -1 | -7 | 5% | 0 | -3% | -2.5

Among those listed so far, two have fluorine.
SMILES | D2 PAM | CtBP-E1A blk | gsp antag | Six1-Eya2 inh | gsp agonist | D2 agonist
Cc1snc2sc(C(=O)c3ccc(F)cc3)c(N)c12 | -8 | 3 | 7% | 2 | -1%[15.4 µM] | -0.6
COc1ccc(CNC(=O)C2CC(c3ccccc3C(F)(F)F)=NO2)cc1 (configuration not stated) | 0 | -1 | 7% | 1 | x | 3.4

Additional entries:
SMILES | D2 PAM | CtBP-E1A blk | gsp antag | Six1-Eya2 inh | gsp agonist | D2 agonist
CC(C)(C)c1[nH]nc2c1C(c1cccnc1)C(C#N)=C(N)O2 (configuration not stated) | -4 | 37 | -8% | 22 | 4% | -2.2
COc1cc(C=CC(=O)N2CCN(CC(=O)N3CCCC3)CC2)cc(OC)c1OC | -17 | -7 | x | 1 | u | -4.7
CSc1ccccc1C(=O)NC1CCSc2ccccc21 (configuration not stated) | -6 | 2 | -12% | 1 | 7%[15.4 µM] | -3.9
Nc1cccc2c(O)cc(S(=O)(=O)O)cc12 | 19 | u | -12% | u | u | u
CC1(c2ccccc2)NC(=O)N(CCOc2ccccc2)C1=O (configuration not stated) | -5 | 0 | 9% | 2 | 0% | -0.1
COc1cc(NC(=O)COC(=O)/C=C/c2ccc(OC)c(OC)c2)cc(OC)c1 | -21 | 0 | -34% | -23 | -4%[15.4 µM] | -1.7
CC(=O)c1c(C(C)=O)c(C)n(C2CCCCC2)c1C | -13 | -5 | 8% | 0 | 35% | 0.5
COc1ccc2sc(N(CCCN(C)C)C(=O)c3nc4ccccc4s3)nc2c1 | -5 | -7 | 6% | 1 | -6%[15.4 µM] | -2.1
N#Cc1ccc(OCC(=O)NCCCN2CCCC2=O)cc1 | -3 | 1 | x | -19 | 0% | -4.6
Cc1ccc(S(=O)(=O)c2nc(-c3ccc(F)cc3)oc2N2CCOCC2)cc1 | -8 | -2 | -3% | 1 | 12% | 0.4
O=c1cccccc1NN=C1CCCCC1 | -5 | -6 | -4% | -10 | -19%[15.4 µM] | -0.9
O=C(NC1CCCCC1)c1nc2c(nnn2Cc2ccccc2Cl)c(=O)[nH]1 | -11 | 6 | u | 1 | -46%[inhibitor] | 0.6
O=C(CNC(=O)C1CCCCC1)NC1CCCCC1 | -2 | 2 | 12% | 3 | 1%[15.4 µM] | 3.9
Cc1ccc(C2=CSC3=NS(=O)(=O)CCN23)cc1C | -17 | 7 | 15% | -4 | -68%[inhibitor] | -3.3
Cc1cccn2cc(CCNS(=O)(=O)c3ccc4c(c3)OCCO4)nc12 | -9 | 2 | 4% | 2 | -11% | -4.4
Cc1ccc(C(CC(=O)c2ccc(Cl)cc2)C(=O)O)cc1 (configuration not stated) | -2 | 5 | 4% | 6 | -35%[inhibitor] | -2.3
C=CCNC(=S)Nc1cccc(NC(=S)NCC=C)c1 | -8 | x | -1% | 2 | -57%[inhibitor] | 3.0
COCCNC(=O)c1c(NC(=O)c2nc(SC)ncc2Cl)sc2c1CCCC2 | -9 | -3 | -2% | 0 | u | -3.8
CCC1(C)COC(C)(CC(=O)NNC(=O)Nc2ccccc2)OC1 (configuration not stated) | -4 | -4 | 13% | 8 | -2%[15.4 µM] | -1.0
COc1ccccc1NS(=O)(=O)c1cc(NC(=O)CN2C(=O)NC3(CCCCC3)C2=O)ccc1C | -1 | -3 | -2% | -27 | 29% | -1.7
CC12CCCCC1C(C(N)=O)C(=O)O2 (configuration not stated) | -13 | -16 | 4% | 6 | 1% | -0.2
COC(=O)c1ccc(CSc2nc3cc(Cl)ccc3o2)cc1 | 1 | 23 | -9% | 20 | 9% | -0.8
Cn1c(=O)c2cc(NC(=O)NCCc3ccccc3)ccc2n1Cc1cccc(C(F)(F)F)c1 | -1 | 0 | x | 2 | x | 9.2
Cc1cccc(C(=O)N2CCN(c3ccc([N+](=O)[O-])c(NCc4ccco4)c3)CC2)c1 | 3 | -25 | -4% | -28 | -3% | -0.7

Complete entries as entered above. Order of values: D2 PAM | CtBP-E1A blk | gsp antag | Six1-Eya2 inh | gsp agonist | D2 agonist
`O=C(CNC(=O)C1CCCCC1)NC1CCCCC1` reads -2 | 2 | 12% | 3 | 1%[15.4 µM] | 3.9
`Cc1ccc(C2=CSC3=NS(=O)(=O)CCN23)cc1C` reads -17 | 7 | 15% | -4 | -68%[inhibitor] | -3.3

Later entries
SMILES | D2 PAM | CtBP-E1A blk | gsp antag | Six1-Eya2 inh | gsp agonist | D2 agonist
O=C(Nc1cccc(Cl)c1)c1nc[nH]c1C(=O)NCCCNC(=O)c1[nH]cnc1C(=O)Nc1cccc(Cl)c1 | -2 | 6 | 6% | 4 | x | -1.4
O=[N+]([O-])c1c(Nc2ccccc2O)cc(N2CCOCC2)c2nonc12 | -4 | x | -9% | 4 | -27% | -3.4
O=C(CN1C(=O)COc2ccc(S(=O)(=O)N3CCOCC3)cc21)Nc1cccc(Cl)c1 | -6 | x | -7% | -2 | -22% | 1.3
CN(C(=O)CSc1nc2ccc(Cl)cc2[nH]1)C1CCS(=O)(=O)C1 (configuration not stated) | -11 | x | -1% | 5 | 27% | -1.6
CC1CCCC(NC(=O)CCCn2c(=S)[nH]c3ccccc3c2=O)C1C (configuration not stated) | -1 | 0 | -3% | 11 | 1%[15.4 µM] | -2.9
COC(=O)c1ccc2nc(-c3cccc(Cl)c3)c(Cc3ccccc3OC)n2c1 | -8 | 9 | x | 9 | x | -6.4
CCCNC(=O)CCn1nc(-c2ccccc2)c2ccccc2c1=O | -5 | -6 | -5% | 3 | -60%[inhibitor] | 0.1
CC[C@@]1(C(=O)OC)N[C@H](CN(C)C(=O)C2CCCCC2)[C@@H]2C(=O)N(C)C(=O)[C@@H]21 | 4 | 4 | 7% | 12 | x | -0.6
Cc1ccc(NC(=O)COc2ccccc2C(N)=O)cc1S(=O)(=O)N1CCCCCC1 | -1 | -12 | 35µM* | -10 | u | 7.3
Cc1ccc(NCCc2ccc(C)nc2)cc1 | -6 | -12 | 9% | -15 | 11% | -9.7
NS(=O)(=O)c1cccc(NC(=O)CSc2nnc(-c3ccccc3)o2)c1 | -11 | -3 | -5% | 7 | 31% | -1.3
C=CCNC(=O)C1CCN(c2c([N+](=O)[O-])cc(C(F)(F)F)cc2[N+](=O)[O-])CC1 | 2 | 1 | 5% | 15 | -3% | -1.8
CC(=O)NNC(=S)Nc1cc(S(=O)(=O)N(C)C)ccc1C | -34 | -3 | -1% | -3 | 0% | -5.0
CCCCN1C(=O)c2ccc(C(=O)NCc3ccco3)cc2C1=O | -6 | 0 | -17% | -5 | 17% | -2.4
O=C(c1ccccc1Cl)N(C(=O)c1ccccc1Cl)c1nccc(-c2cccs2)n1 | -6 | 44 | 2% | 0 | 23% | -1.6
Cc1nc2ccccn2c1C(=O)OCC#N | -10 | -11 | 7% | -2 | 16% | -5.5
Cc1ccc(Cl)c(NC(=O)COC(=O)c2nn(C)c(=O)c3ccccc23)c1Cl | 6 | x | 0% | 6 | 1% | -2.7
O=C(CCN1C(=O)c2ccccc2C1=O)NCCC1=CCCCC1 | -8 | 6 | 12% | -1 | 26% | -1.2
O=C(O)[C@H](CSCc1ccccc1)NS(=O)(=O)c1ccc(F)cc1 | -19 | 1 | 17% | 9 | -12% | -2.4
CCCn1c(C)nnc1SCC(=O)NC1CCCCC1 | -1 | 3 | 9% | -5 | 1% | 0.5
O=C(O)C(Nc1nc(C(F)(F)F)nc2ccccc12)c1ccccc1 (configuration not stated) | -2 | -2 | 3% | 6 | 6% | -1.3
CN(C)c1ccc(CNCC2CCCO2)cc1 (configuration not stated) | -11 | 3 | 4% | 2 | -3%[15.4 µM] | -4.5
CC(=O)Nc1ccc(NC(=O)CSc2ncnc3c2cnn3Cc2ccccc2)cc1 | -6 | 3 | 13% | 12 | 7% | -7.5
O=C(NCCCNC(=O)c1cnccn1)c1cccc(F)c1 | -6 | -3 | 3% | 9 | -1%[15.4 µM] | -2.1
CCOC(=O)c1c(NC(=O)C2CCCO2)sc2c1CCC2 (configuration not stated) | -7 | 0 | -18% | -2 | -1% | -2.4
Cc1cccc2nc(CSc3nc4[nH]ncc4c(=O)n3-c3cccc(Cl)c3)cc(=O)n12 | 3 | 5 | -1% | 0 | 21% | -1.4
Cc1ccc(S(=O)(=O)NCc2ccccc2)cc1C(=O)N(C)Cc1ccc(F)cc1 | -18 | -3 | -15% | -2 | -23% | -0.9
CCOC(=O)CS(=O)(=O)c1nc(-c2ccc(F)cc2)cc(C(F)(F)F)n1 | -59 | 11 | 2%[15.4 µM] | 5 | 0% | -10
COc1ccccc1C(=O)NCCC(=O)Nc1ccc(S(=O)(=O)N2CCCC(C)C2)cc1 (configuration not stated) | -4 | -4 | -21% | -6 | -43%[inhibitor] | -4.7
COc1ccc(CN(C)C(=O)C(CCSC)NS(=O)(=O)c2ccc3c(c2)OCCO3)c(OC)c1OC (configuration not stated) | 13 | x | -17% | -6 | u | 0.0
CCOC(=O)C1CCN(CC(=O)Nc2cc(S(=O)(=O)N3CCOCC3)ccc2C)CC1 | 1 | -2 | -8% | -19 | -2%[15.4 µM] | 2.4
O=C(O)COc1ccccc1/C=N/NC(=O)CSc1nnc(SCc2cccc3ccccc23)s1 | -10 | -12 | -21% | -20 | 16% | -8.8
Cc1ccc(NC(=O)/C(Cl)=C/c2ccccc2)cc1C | -17 | 26 | -8% | 31 | 5% | -0.6
